Bioassay records as filed in PubChem.
TsaE inh = inhibitors of E. coli YjeE (TsaE); P0AF67; purified YjeE, fluorescence polarisation of a bound ADP probe; Potency, µM; actives 0.05% (n = 71,000); active = well fitted falling curve; inconclusive = weaker or top-dose-only fall, or a rising curve; inactive = flat or poorly fitted curve;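 note: top concentration of the series not given in the record; excess ADP was the control for the full effect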
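Fluorescence polarization of a BODIPY Texas Red–ADP probe (2 uM) bound to purified YjeE (10 uM) was read after 15 min room-temperature incubation with compounds. Loss of polarization marks inhibitors; ADP serves as titrated control.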
Bst PK mod = modulators of Bacillus stearothermophilus pyruvate kinase; partly purified Bacillus stearothermophilus pyruvate kinase, luminescence ATP production; ribose 5-phosphate activator present at AC10; Potency, µM; actives 1.2% (n = 51,000); in the data active means potency below about 11 µM; inconclusive means mostly about 12 µM to 25 µM; inactive means weaker than that;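 the screen sought inhibitors and activators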;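 note: potency is the fitted concentration of half-maximal effect; scaled between full activation by ribose 5 phosphate and full inhibition by luteolin; about four in five hits inhibit and the cells do not say which; series up to 57 µM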
Starred values were filed as active, the others as inactive; i = inactive; ? = inconclusive; nt = no result given. Not all compounds are listed (hit frequency here may not be typical).

SMILES | TsaE inh | Bst PK mod
COc1ccc(NC(=O)[C@@H]2[C@@H]3C(=O)N(C4CCCCC4)C(=O)[C@@H]3C3c4ccccc4C=CN32)cc1 (some centres undefined) | i | >57
O=C(NCc1ccco1)C1CCN(S(=O)(=O)c2cccc3cccnc23)CC1 | i | nt
O=C(Nc1ccc2c(c1)OCO2)C1CCCN1C(=O)OCc1ccccc1 (centres undefined) | i | nt
COc1ccc2[nH]c(=O)c(CN(C(=O)NC3CCCCC3)C3CCCC3)cc2c1 | i | >57
CCOCC(=O)Nc1nc2ccc(OCC)cc2s1 | i | i
NC[C@@H](O)CSCc1ccc(Cl)cc1 | i | nt
Cn1c(NC(=O)C(C)(C)Oc2ccc(Cl)cc2)cc(=O)n(C)c1=O | i | nt
CCOC(=O)N1CCN(c2cc(=O)n(Cc3ccc(F)cc3)c(=O)[nH]2)CC1 | i | >57
CCN1CCN(c2ccc(NC(=O)c3cccc4ncccc34)cc2)CC1 | i | >57
Cc1cccc(N2CCN(Cc3c(C)n(C)n(-c4ccccc4)c3=O)CC2)c1C | i | nt
Cc1nn(Cc2ccc(Cl)c(Cl)c2)c(C)c1NC(=O)c1cc(-c2ccc3c(c2)OCO3)on1 | i | >57
CC(=O)Nn1cc2c(c1-c1ccccc1)c(=O)n(C)c(=O)n2C | i | nt
Cc1ccc2nc(C3CCN(C(=O)c4ccco4)CC3)[nH]c2c1 | i | >57
Clc1ccccc1-c1nnc2sc(-c3ccccn3)nn12 | i | >57
CSC(=Nc1ccccc1)C1=C(O)COC1=O | nt | >11
Cc1nn2cc(-c3ccc(N)cc3)nc2s1 | i | nt
CCCCc1nc2ccccc2n2cc3c(=O)n(C)c(=O)n(C)c3c12 | i | nt
CC(C)C(c1nnnn1C1CCCC1)N1CCN(c2ccccc2F)CC1 (centres undefined) | i | >57
CC(C)OC(=O)Cn1cnc2ccc(Br)cc2c1=O | i | >57
COc1ccc(-c2csc(N3CCN(Cc4ccc5c(c4)OCO5)CC3)n2)cc1 | i | >57
CCOC(=O)C1CCCN(C(=O)c2sc3nc(-c4ccc(OC)cc4)cn3c2C)C1 (centres undefined) | i | >57
CCCNC(=O)c1ccccc1NS(=O)(=O)c1ccc(OC)c(OC)c1 | i | >57
COc1ccc(CN2CC(C(=O)N3CCOCC3)CC2=O)cc1 (centres undefined) | i | >57
Cc1c(C)n(C(=O)CN2CCN(c3ccccn3)CC2)c2ccccc12 | i | nt
O=C(NC1CCCCC1)C(c1ccccc1)N(Cc1ccco1)C(=O)Cn1cnc2ccccc21 (centres undefined) | i | >57
CCCCNS(=O)(=O)c1cccc(S(=O)(=O)N2CCCC2)c1 | i | >57
NC(N)=NC[C@H](N)C(=O)O | i | nt
CC(=O)N=c1sc2nc3ccccc3nc2n1N(C(C)=O)C(C)=O | i | >57
COC(=O)c1ccc(Oc2nc(Nc3ccc(F)cc3)nc(N3CCCC3)n2)cc1 | i | >57
CCCC(=O)N1c2ccccc2[C@@H](N(C(C)=O)c2ccccc2)C[C@H]1C | i | >57
O=C1NC2(CCCCC2)N=C1c1ccccc1 | i | >57
Cc1onc(-c2ccccc2)c1C(=O)Nc1ccc(S(=O)(=O)NC2=NCCCCC2)cc1 | i | >57
COc1ccc(S(=O)(=O)N2CCCC(C(=O)NCc3ccncc3)C2)cc1Cl (centres undefined) | i | >57
COc1cccc(C2C(C#N)=C(N)OC3=C2C(=O)CCC3)c1OC(=O)c1ccco1 (centres undefined) | i | >57
COc1cccc(C2/C(=C(\O)c3c(C)nc4c(C)cccn34)C(=O)C(=O)N2CCCN(C)C)c1OC (centres undefined) | i | >57
Cn1c(SCC(=O)Nc2cccc(NC(=O)c3cccs3)c2)nnc1-c1ccncc1 | i | >57
Nc1nc(C(=O)N2CCOCC2)nn1C(=O)c1ccc(Cl)cc1 | i | nt
CCOc1ccc2[nH]c(=O)c(CN(CCCO)C(C)=O)cc2c1 | i | >57
O=C1CC(N2CCN(c3cccc(C(F)(F)F)c3)CC2)C(=O)N1c1ccc(F)cc1 (centres undefined) | i | nt
COC(=O)c1sc(N2C(=O)c3oc4ccccc4c(=O)c3C2c2cccs2)nc1C (centres undefined) | i | >57
CN1CCNC(=O)C1CC(=O)O (centres undefined) | i | >57
COc1ccc(S(=O)(=O)N(C)CC(=O)Nc2ccc(F)cc2)cc1 | i | >57
CN(C)CCNc1oc(-c2ccccc2F)nc1C#N | i | nt
CCOC(=O)c1[nH]c(C)c(C(=O)Nc2ccc(C)c(F)c2)c1C | i | >57
O=C(O)COc1ccccc1C1C2C(=O)N(c3ccccc3)C(=O)C2ON1c1ccccc1 (centres undefined) | i | >57

Entries of single compounds, looked up by structure. Order of values: TsaE inh, Bst PK mod
`O=C1CC(N2CCN(c3cccc(C(F)(F)F)c3)CC2)C(=O)N1c1ccc(F)cc1` (centres undefined) is listed with i, nt
`Cc1nn(Cc2ccc(Cl)c(Cl)c2)c(C)c1NC(=O)c1cc(-c2ccc3c(c2)OCO3)on1` is listed with i, >57
`COc1ccc(S(=O)(=O)N(C)CC(=O)Nc2ccc(F)cc2)cc1` is listed with i, >57

(next part)
SMILES | TsaE inh | Bst PK mod
CC[C@@H](c1ccc2cc(O)ccc2c1)C(C)(C)C(=O)O | i | nt
COc1cc2ccc(=O)oc2cc1O | i | nt
Cc1ccc(-c2c3c(=O)n(C)c(=O)n(C)c3cn2CCCN2CCOCC2)cc1 | i | >57
Cc1cc(C(=O)CSc2nncs2)c(C)n1-c1ccc2c(c1)OCO2 | i | >57
O=C(O)[C@H](Cc1c[nH]c2ccccc12)N1C(=O)c2ccccc2C1=O | i | nt
Cc1ccc2c(c1)NCCO2 | i | >57
O=CN1CCN(C2CC(=O)N(c3ccc4c(c3)OCO4)C2=O)CC1 (centres undefined) | i | >57
c1ccc2cc(OCCN3CCCC3)ccc2c1 | i | nt
COc1ccccc1NC(=O)Cc1nn(C)c(=O)c2ccccc12 | i | >57
Fc1ccc(-c2nnc(Cc3nnc(-c4ccc(F)cc4)o3)o2)cc1 | i | >57
C[C@@H]1C[C@H](Nc2ccccc2)c2ccccc2N1C(=O)c1cccnc1 | nt | >26
O=C(NCc1ccc(F)cc1)C1CCCN(S(=O)(=O)c2cccnc2)C1 (centres undefined) | i | >57
O=c1c2c3c(sc2ncn1/N=C/c1ccco1)CCCC3 | i | nt
CN(C(=O)c1cccc(C#N)c1)c1nnc(-c2ccccn2)s1 | i | >57
Nc1nc(=O)c2[nH]cnc2n1O | i | nt

Given field by field: part of the list above
> Fc1ccc(-c2nnc(Cc3nnc(-c4ccc(F)cc4)o3)o2)cc1
  TsaE inh: i
  Bst PK mod: >57

> C[C@@H]1C[C@H](Nc2ccccc2)c2ccccc2N1C(=O)c1cccnc1
  TsaE inh: nt
  Bst PK mod: >26

> O=C(NCc1ccc(F)cc1)C1CCCN(S(=O)(=O)c2cccnc2)C1 (centres undefined)
  TsaE inh: i
  Bst PK mod: >57

> O=c1c2c3c(sc2ncn1/N=C/c1ccco1)CCCC3
  TsaE inh: i
  Bst PK mod: nt

Later entries.
SMILES | TsaE inh | Bst PK mod
CCOc1ccc2nnnn2n1 | i | >57
COc1cccc(C(=O)OCc2ccccc2C#N)c1O | i | >57
CCOC(=O)N1CCN(C(=O)CN(c2ccc3c(c2)OCO3)S(C)(=O)=O)CC1 | i | >57
CN1CCN(c2ncnc3ccc(-c4cccc(NS(C)(=O)=O)c4)cc23)CC1 | i | nt
COc1cc(S(=O)(=O)N2CCN(Cc3ccc4c(c3)OCO4)CC2)c(C)cc1C | i | nt
CCCOc1ccc(C2C(=O)N(C3CCCCC3)CC(=O)N2C2CC2)cc1OC (centres undefined) | i | >57
CCn1c(Cc2ccccc2)nnc1SCC(=O)Nc1ccccc1 | i | >57
Cc1ccccc1OCc1nnc2n1CC(C)S2 (centres undefined) | i | nt
COc1ccc(/C=N/O)cc1COc1ccc(NC(C)=O)cc1 | i | nt
O=C1c2ccccc2C(=O)N1CCCc1nc2ccccc2c(=O)n1CCCn1ccnc1 | i | >57
O=C(COc1ccc(S(=O)(=O)N2CCCC2)cc1)NCc1ccco1 | i | >57
COC(=O)C(C)Sc1ccc2nnc(-c3ccc(F)cc3)n2n1 (centres undefined) | i | >57
O=C(NCc1ccoc1)c1ccc(NC(=O)c2ccccc2Cl)cc1 | i | >57
CCOC(=O)c1[nH]c2ccc(F)cc2c1NC(=O)CCN1CCSCC1 | nt | >26
Cc1cccc(-n2c(N)cc(=O)nc2SCC(=O)NC2CCCCC2)c1 | i | >57
Cc1ccccc1OCc1nc2ccccc2c(=O)n1/N=C/c1ccco1 | i | >57
O=C(NCCCN1CCCC1=O)c1ccc2c(c1)OCO2 | i | >57
O=C(CSc1ccccn1)Nc1ccccc1F | i | nt
Cc1noc(C)c1C(=O)N1CCC2(CC1)CN(c1ccccc1)C2 | i | nt
Cc1c(NC(=O)COC(=O)C2CC3C=CC2C3)c(=O)n(-c2ccccc2)n1C (centres undefined) | i | >57
CSc1nsc(SC)c1NC(=O)OCCc1ccccn1 | i | >57
Nc1ccn([C@H]2O[C@H](CO)[C@@H]3[O][Sn]([c]4ccccc4)([c]4ccccc4)[O][C@H]32)c(=O)n1 | i | nt
Nn1cc(-c2ccccc2)nc1SCC(=O)NC1CCS(=O)(=O)C1 (centres undefined) | i | >57
COC(=O)c1[nH]c2cc(OC)ccc2c1NC(=O)CCN1CCCC(C)(C)C1 | nt | >26
COc1ccc2nc(NC(=O)c3cccc(OCc4c(C)noc4C)c3)sc2c1 | i | 6*
Cc1ccc(NC(=O)COC(=O)C2CC2C)c(S(=O)(=O)N2CCCCC2)c1 (centres undefined) | i | >57
CCOC(=O)c1cc2c(=O)n3cc(C)ccc3nc2n(Cc2cccnc2)c1=N | i | nt
O=C1NCCN1c1ncc([N+](=O)[O-])s1 | i | nt
CN1CCN([C@@H](c2ccccc2)c2ccc(Cl)cc2)CC1 | i | nt
COc1ccc(NC(=O)CN2CCN(CC(=O)Nc3ccccc3Cl)CC2)cc1 | i | >57

Looked up by compound from the list above (2):
SMILES | TsaE inh | Bst PK mod
COc1cccc(C2/C(=C(\O)c3c(C)nc4c(C)cccn34)C(=O)C(=O)N2CCCN(C)C)c1OC (centres undefined) | i | >57
CC(=O)Nn1cc2c(c1-c1ccccc1)c(=O)n(C)c(=O)n2C | i | nt

Carrying on:
SMILES | TsaE inh | Bst PK mod
COc1cc2c(cc1NC(=O)c1cccnc1)CCCC2 | i | >57
O=S(=O)(c1cccs1)N1CCc2ccccc21 | ? | >57
O=C(CN1CCC(C(=O)c2ccc(F)cc2)CC1)Nc1ccccc1 | i | >57
NC1=N[C@H](c2ccc(Cl)cc2)N(c2ccc(S(=O)(=O)Nc3ncccn3)cc2)C(N)=N1 | i | nt
COc1cc2nc(C3CCC3)n(NC(=O)COc3ccccc3)c(=O)c2cc1OC | i | >57
Cc1ccc(Nc2cc(=O)n(C3CCCCC3)c(=O)[nH]2)cc1C | i | >57
O=C(Nc1nnc(C2CCCCC2)s1)c1ccco1 | i | >57
Cc1nonc1NC(=O)OC1CCCCC1 | i | >57
O=c1oc2cc(O)ccc2c2c1CCCC2 | i | ?
COc1ccc(-n2c(CNC(=O)c3cc(OC)c(OC)c(OC)c3)n[nH]c2=S)cc1 | i | >57
COc1ccc(OC)c(C2=NOC(C(=O)Nc3c(C)n(C)n(-c4ccccc4)c3=O)C2)c1 (centres undefined) | i | nt
COc1ccc(-c2coc3cc(O)ccc3c2=O)cc1 | i | nt
CN(C)C(=O)N1CCC(C(=O)NC2CCCCCCC2)CC1 | i | >57
O=C(O)CSc1nnc(CNc2ccc(Cl)cc2)n1Cc1ccccc1 | i | >57
CS(=O)(=O)N1CCC[C@@]2(CCN(C(=O)Nc3cccc(C#N)c3)C2)C1 | i | nt
COc1ccc(C2C(C(C)=O)=C(O)C(=O)N2CCCn2ccnc2)cc1OC (centres undefined) | i | >57
Cc1cc(N2CCN(C(=O)c3ccco3)CC2)n2ncnc2n1 | i | >57
Cc1csc(NC(=O)c2cc3c(s2)CCC3)n1 | i | ?
CCC1=C(C[C@H]2NCCc3ccccc32)C[C@@H]2c3cc(OC)c(OC)cc3CCN2C1 | i | nt
N#Cc1ccc(-c2ccco2)nc1SCC(=O)c1ccc(Cl)cc1 | nt | >26
COc1ccccc1-c1nc(C#N)c(N2CCN(C(c3ccccc3)c3ccccc3)CC2)o1 | i | >57
CCOC1(OCC)N=C(N)C2(C#N)C(c3ccc(NC(C)=O)cc3)C12C#N (centres undefined) | i | >57
COCCn1c(=O)c(-c2cccs2)nc2cnc(N3CCNCC3)nc21 | i | nt
CCN1C(=O)C2C(c3ccccc3F)NC(Cc3ccc(O)cc3)(C(=O)OC)C2C1=O (centres undefined) | i | >57
COc1cccc(NC(=O)Cn2nnc(C(=O)Nc3ccccc3)c2N)c1 | i | >57
CCCCOC(=O)C1Cc2ccccc2C(=O)O1 (centres undefined) | i | >57
COc1ccc(NC(=O)CSc2nnc(-c3ccccc3C)n2N)cc1OC | i | >57
O=C(NCc1cccs1)C1CCC(CNS(=O)(=O)c2cccs2)CC1 (centres undefined) | i | >57
O=C(CCCn1c(=O)[nH]c2ccccc2c1=O)NC1CCCCCC1 | i | >57
Cc1ccc(C(=O)NCc2cccs2)cc1S(=O)(=O)N1CCCCC1 | i | >57
COc1ccc(-c2nn3c(-c4cccc(C)c4)nnc3s2)cc1OC | i | >57
Cc1ccc(-c2csc3nnc(SCC(=O)Nc4cccc(C)n4)n23)cc1 | i | >57
O=C(Cn1cnc2c(cnn2-c2ccc(F)cc2)c1=O)N1CCCc2ccccc21 | i | >57
CCCCC(=O)Nc1ccc2c(c1)nc1n2CCSC1 | i | nt
CCn1c(O)c(/C=N/n2cnnc2)sc1=S | i | >57
CC(NC(=O)c1ccc(S(=O)(=O)N(C)C)cc1)c1ccccc1 (centres undefined) | i | >57
c1ccc2cc(NCNc3ccc4ccccc4c3)ccc2c1 | i | nt
